Screening results as filed in PubChem BioAssay.
26S disassembly = blocks ATP-dependent breakdown of the yeast 26S proteasome. anti-FLAG beads, GFP-proteasome disassembly, flow cytometry. inhibition of disassembly, % (concentration not given with the values). actives 0.2% (n = 24,000). AID 751;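 active = above 40%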;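 also: plate controls were ATP control with full disassembly for no effect and ATP-gamma-S intact proteasomes for full effect; higher percent means more bead fluorescence retained so stronger block of disassembly; stock transfer was 100 nL into about 10 µL; wells with too few beads may also be inconclusive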
VCAM-1 rise = boosters of cytokine-driven VCAM-1 levels – cell-based, plate reader, pooled HUVEC, TNFa stimulus (AID 455). HUVEC TNFa-induced VCAM-1 immunofluorescence, plate reader; numbers were filed only for top-ranked candidate wells. actives 0.2% (n = 10,000). augmentation, % at 5 µM;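 active = a compound raising TNF-alpha-driven VCAM-1 surface staining, with its hit status upheld on visual or statistical review; inactive = the rest, including hits rejected on review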;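 also: 0% = TNFa with vehicle and 100% = strongest image-checked hit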
* marks the source's active call; other numbers are inactive results.

For O=S(=O)(NCc1ccc(Cl)cc1)c1cnc[nH]1 the results were 26S disassembly 2.1 and VCAM-1 rise inactive.
`COc1ccc(N2CCN(CCNC(=O)C3CC(=O)N(C4CCCC4)C3)CC2)cc1` (stereo unspecified) gave 26S disassembly 2.2.
For Cc1ccc(C)c(N2CCN(C(=O)CCCCn3c(=O)[nH]c4ccccc4c3=O)CC2)c1 the results were 26S disassembly -0.8.
COc1ccc(-c2n[nH]c(C)c2-c2ccc(Cl)cc2)c(O)c1OC was read as 26S disassembly -6.2 and VCAM-1 rise inactive.
`O=C(c1ccccc1)c1c[nH]c2cc3c(cc2c1=O)OCO3` gave 26S disassembly -1.4.
`Cc1cc(NC(=O)C23CCC(C)(C(=O)O2)C3(C)C)no1` (stereo unspecified) gave 26S disassembly 0.9 and VCAM-1 rise inactive.
For CCCS(=O)(=O)N1CCCC(C(=O)NCCCN(CC)c2cccc(C)c2)C1 (stereo unspecified) the results were 26S disassembly 3.0.
Screening COc1ccc(NC(=O)CSc2nnc(Cn3c(=O)sc4ccccc43)n2C)cc1OC returned 26S disassembly -0.8.
Cc1cnc(NC(=O)C2=C(O)c3ccccc3S(=O)(=O)N2C)s1 was read as 26S disassembly 0.0 and VCAM-1 rise inactive.
Screening COc1ccc(OC)c(CNC(=O)CCN2C(=O)COc3ccccc32)c1 returned 26S disassembly -1.3 and VCAM-1 rise inactive.
O=C(Cn1cnc2ccccc2c1=O)NCCC(=O)N1CCN(c2ccccc2)CC1 was read as 26S disassembly -0.1 and VCAM-1 rise inactive.
For Cc1cc(NC(=O)CSc2nc3c(c(=O)n2Cc2ccccc2)SC(C)C3)no1 (stereo unspecified) the results were 26S disassembly 3.3 and VCAM-1 rise inactive.
O=C(OCC(=O)c1ccc[nH]1)c1ccc(S(=O)(=O)N2CCCCC2)cc1 was read as 26S disassembly 0.7 and VCAM-1 rise inactive.
For C=CCn1c(SCC(=O)c2cccs2)nnc1-c1cccc(OC)c1 the results were 26S disassembly 0.0.
For Cc1ccc(S(=O)(=O)N2CCC(C(=O)N[C@@H](Cc3ccccc3)C(=O)O)CC2)cc1 the results were 26S disassembly 0.2 and VCAM-1 rise inactive.
For O=C(NCCN1CCN(c2cccc(Cl)c2)CC1)C1CCCN(S(=O)(=O)c2cnc[nH]2)C1 (stereo unspecified) the results were 26S disassembly 0.0.
CC(C)(C)c1cn(-c2ccccc2)c(=S)[nH]1 was read as 26S disassembly -0.2.
`COc1ccc(N=C2SC(C(=O)Nc3ccc4c(c3)OCO4)CC(=O)N2C)cc1` (stereo unspecified) gave 26S disassembly 0.8.
Screening COc1ccc(-c2noc(-c3cc(C)cc(C)c3)n2)cc1OC returned 26S disassembly 7.4.
For CCOc1ccc(OCC(=O)c2c(O)c3ccccc3oc2=O)cc1 the results were 26S disassembly 1.4.

The last two entries of the part before are carried over, then new ones follow:
Screening COc1ccc(-c2noc(-c3cc(C)cc(C)c3)n2)cc1OC returned 26S disassembly 7.4.
For CCOc1ccc(OCC(=O)c2c(O)c3ccccc3oc2=O)cc1 the results were 26S disassembly 1.4.
`CC(C)N1C(=O)CCC1C(=O)N1CCCc2ccccc21` (stereo unspecified) gave 26S disassembly -0.3.
`CC(Oc1ccc2oc(-c3ccccc3)c(C(=O)O)c2c1)C(=O)O` (stereo unspecified) gave 26S disassembly 1.3 and VCAM-1 rise inactive.
Cc1cccn2cc(CNC(=O)C3CCCCC3)nc12 was read as 26S disassembly -0.2.
N/C(=N/O)c1nc(N2CCCC2)nc(N(c2ccccc2)c2ccccc2)n1 was read as 26S disassembly 0.2 and VCAM-1 rise inactive.
`COc1ccc(NC(=O)NCc2cccn2C)c(OC)c1` gave 26S disassembly 0.0.
Screening COC(=O)c1ccccc1NC(=O)CSc1nc(N)cc(N)n1 returned 26S disassembly 0.2.
`Cc1cc(C)cc(-n2nnc(C(=O)NCc3ccc4c(c3)OCO4)c2N)c1` gave 26S disassembly 16 and VCAM-1 rise inactive.
Screening COCCn1cc(C(=O)N2CCN(C)CC2)c2c3ccccc3n(C)c2c1=O returned 26S disassembly -0.9.
Screening O=C(NCc1cccnc1)NC1(C(F)(F)F)Oc2ccccc2O1 returned 26S disassembly -1.0.
`O=C(CN1CCN(c2cccc(Cl)c2)CC1)N1CCCC1` gave 26S disassembly -2.6 and VCAM-1 rise inactive.
For C=CCSc1nc2nc(C)cc(C)n2n1 the results were 26S disassembly 1.2.
Screening c1ccc(N2CCOCC2)c(Nc2nc3ccccc3n3cnnc23)c1 returned 26S disassembly 1.2.
For Cc1ccnc(NC(=O)C2CCC(CNc3c(N4CCCC4)c(=O)c3=O)CC2)c1 (stereo unspecified) the results were 26S disassembly -1.8 and VCAM-1 rise inactive.
`Cc1ccc(S(=O)(=O)NCCCNC(=O)N2CCOCC2)cc1` gave 26S disassembly 0.6 and VCAM-1 rise inactive.
Screening Cc1ccc(-c2nn3c(=O)c(C)nnc3s2)cc1 returned 26S disassembly -0.7 and VCAM-1 rise inactive.
Cn1c(SCC(=O)Nc2cccc(F)c2)nnc1-c1cccnc1 was read as 26S disassembly -2.2.
Screening COCCNC(=O)CCn1c(=O)oc2ccccc21 returned 26S disassembly 0.1.
CC1(C)CC(=O)C(C=NCc2ccc3c(c2)OCO3)=C(O)C1 was read as 26S disassembly -0.4 and VCAM-1 rise inactive.
`CCOc1ccc(S(=O)(=O)n2ccc(C)n2)c2ccccc12` gave 26S disassembly 0.1.
Screening Cc1cccc2sc(NC(=O)CNS(=O)(=O)c3ccc(Br)s3)nc12 returned 26S disassembly -1.5.
CC(=O)Nc1ccc(S(=O)(=O)N2CCN(c3cccc(C)c3C)CC2)cc1 was read as 26S disassembly -1.6.
For CC1(C)Cc2cccc(OCC(=O)O)c2O1 the results were 26S disassembly -0.2 and VCAM-1 rise inactive.
For Nn1c(SCC(=O)Nc2ccc3c(c2)OCO3)nnc1C1CC1 the results were 26S disassembly 1.0 and VCAM-1 rise inactive.
`CCOc1ccc(N(CC(=O)NCc2cccs2)S(=O)(=O)c2c(C)noc2C)cc1` gave 26S disassembly -2.2.
For O=C(CN1CCN(Cc2ccccc2Cl)C1=O)NC1CCCCCCC1 the results were 26S disassembly 5.3.
`NC(=O)C1CCN(C(=O)c2cc3n(n2)C(C(F)(F)F)CC(c2ccco2)N3)CC1` (stereo unspecified) gave 26S disassembly -1.4 and VCAM-1 rise inactive.
`COc1ccc(N2CCN(Cc3nc4c(c(=O)[nH]c(=O)n4C)n3CC(C)=O)CC2)cc1` gave 26S disassembly 1.1 and VCAM-1 rise inactive.
For CCN(CC)CCNC(=O)c1cc2c(=O)n(C)c3ccccc3c2n1C the results were 26S disassembly 0.8.
Screening COc1ccc(-n2nnc3c(=O)n(Cc4ccccc4C)cnc32)cc1 returned 26S disassembly -6.4.
`COc1cc2c(cc1OC)C(C(=O)N1CCCC1)C(c1ccccc1F)N(C)C2=O` (stereo unspecified) gave 26S disassembly 1.0.
COCCN1Cc2cccc(C(=O)NCc3cccnc3)c2C1=O was read as 26S disassembly 0.2.
For O=C(Nc1cccc(Cl)c1)c1ccc2c(=O)n3c(nc2c1)CCCCC3 the results were 26S disassembly 3.9.
`CCc1cccc(NC(=O)C2CCCN(S(=O)(=O)c3c(C)[nH]c(=O)[nH]c3=O)C2)c1` (stereo unspecified) gave 26S disassembly 0.3 and VCAM-1 rise inactive.
`Cc1ccnc(NS(=O)(=O)c2ccc(NC(=O)C3CCCCC3C(=O)O)cc2)n1` (stereo unspecified) gave 26S disassembly 0.9.
Screening CCOc1ccccc1C1CC(c2ccc(Cl)cc2)Nc2nc(N)nn21 (stereo unspecified) returned 26S disassembly -0.3.
`O=C(c1ccc(CS(=O)(=O)c2c(Cl)cccc2Cl)o1)N1CCCC1` gave 26S disassembly 1.2.
Screening Cn1c(=O)cc(OCC(=O)N2CCC(N3CCCCC3)CC2)c2ccccc21 returned 26S disassembly 1.4.
`COc1ccccc1-c1cc2nc(C)c(CCC(=O)NCc3ccco3)c(C)n2n1` gave 26S disassembly 0.7 and VCAM-1 rise inactive.
For CCOC(=O)c1ccc(N=Cc2nc(-c3ccccc3)oc2OC(C)=O)cc1 the results were 26S disassembly 2.2 and VCAM-1 rise inactive.
CCOC(=O)N1CCN(C(=O)c2cnn3ccccc23)CC1 was read as 26S disassembly 0.4.
CC(C)(C)c1nc(CN2CCOCC2)ccc1O was read as 26S disassembly -0.1 and VCAM-1 rise inactive.
For CCCN1Cc2cccc(C(=O)Nc3ccc(OC)c(OC)c3)c2C1=O the results were 26S disassembly -1.1.
For Cc1ccc(-c2noc(CCC(=O)Nc3ccc4c(c3)OCO4)n2)cc1 the results were 26S disassembly 0.9.
For COc1cccc(C(=O)Nc2c(C(N)=O)oc3ccccc23)c1 the results were 26S disassembly -1.0 and VCAM-1 rise inactive.
Cc1cc(NC(=O)CSc2nc3c(c(=O)n2-c2ccc(Cl)cc2)SCC3)no1 was read as 26S disassembly 0.3.
Screening O=C1CC(Cc2ccccc2)C(=O)N1CCc1ccc2c(c1)OCO2 (stereo unspecified) returned 26S disassembly -1.9 and VCAM-1 rise inactive.
`O=C(Cn1nnc(-c2cccs2)n1)OC1CCCCC1` gave 26S disassembly -0.4 and VCAM-1 rise inactive.
`O=C(CSc1nc2c(cnn2-c2ccccc2)c(=O)[nH]1)c1ccc(Cl)cc1` gave 26S disassembly 0.0.
Cc1cc(N2CCN(C(=O)c3ccco3)CC2)n2nc(C)nc2n1 was read as 26S disassembly 1.9.
Screening CC(C)CCNC(=O)Cc1c(C(=O)O)[nH]c2ccc(Cl)cc12 returned 26S disassembly -1.6.
For O=C(Cn1nc(-c2ccccc2)ccc1=O)N1CCOCC1 the results were 26S disassembly 0.0.
`COc1cc(C2=NOC(C(=O)Nc3ccc(C)cc3)C2)cc(OC)c1OC` (stereo unspecified) gave 26S disassembly -0.7.
`CCS(=O)(=O)NCc1cn2ccsc2n1` gave 26S disassembly -0.6.
CCOC(=O)N1CCC(NC(=O)c2ccc3c(c2)ncn3C2CCCC2)CC1 was read as 26S disassembly -0.1.
For O=C(O)COc1ccc(Oc2ccccc2)cc1 the results were 26S disassembly 1.0 and VCAM-1 rise inactive.
Screening O=C(NC1CCCC1)C(c1ccc(Cl)cc1)N1CCOCC1 (stereo unspecified) returned 26S disassembly 1.1.
`O=C(NC1CCCC1)c1ccc(S(=O)(=O)N2CCCC2)cc1` gave 26S disassembly 0.1 and VCAM-1 rise inactive.
For Cn1c(=O)n(CCN2CCOCC2)c(=O)c2c1nc1n2CCN1c1ccccc1 the results were 26S disassembly 4.4 and VCAM-1 rise inactive.
CCOc1ccc(-c2noc(-c3ccncc3)n2)cc1OCC was read as 26S disassembly 0.0 and VCAM-1 rise inactive.
O=C(c1cc(-c2ccc3c(c2)OCO3)on1)N1CCN(c2ccccc2)CC1 was read as 26S disassembly 0.4.
COc1ccccc1NC(=O)C1=C(C)Nc2nc(-c3cccs3)nn2C1c1cccnc1 (stereo unspecified) was read as 26S disassembly 0.2.
Screening COCCOC(=O)c1[nH]c2c(c1C)C(=O)CC(c1ccc(F)cc1)C2 (stereo unspecified) returned 26S disassembly -0.6.
Clc1ccc(C2=Nn3c(nnc3-c3n[nH]c4c3CCC4)SC2)cc1Cl was read as 26S disassembly -0.8 and VCAM-1 rise inactive.
For CC(=O)Nc1ccc(S(=O)(=O)N2CCN(CCC#N)CC2)cc1 the results were 26S disassembly 0.8.
COCCCNC(=O)CSc1ccc(Cl)cc1 was read as 26S disassembly 0.4 and VCAM-1 rise inactive.
For Cc1noc(C)c1CSc1nnc2scc(-c3ccc(Cl)cc3)n12 the results were 26S disassembly -0.4 and VCAM-1 rise inactive.
For CCOc1ccc(-c2nnn(CCC(=O)O)n2)cc1OC the results were 26S disassembly 1.3 and VCAM-1 rise inactive.
Screening Cc1c(C(=O)NCc2cccnc2)oc2ccc(S(=O)(=O)N3CCCC(C)C3)cc12 (stereo unspecified) returned 26S disassembly -1.0.
Screening COC(=O)c1ccccc1NC(=O)c1cc(-c2ccc(OC)c(OC)c2)on1 returned 26S disassembly 1.4 and VCAM-1 rise inactive.
Screening COC(=O)c1sc2cnccc2c1N returned 26S disassembly -0.1.
For Cc1cc(-c2ccco2)n(CC(=O)NCCN(C)C)n1 the results were 26S disassembly -0.2.
O=C(CCn1c(=O)oc2ccccc21)N1CCN(c2ccccc2F)CC1 was read as 26S disassembly 1.3.
For CCCCNc1cc(C(=O)O)cc(S(N)(=O)=O)c1Oc1ccccc1 the results were 26S disassembly 0.9 and VCAM-1 rise inactive.
For CCCCS(=O)(=O)N1CN(S(=O)(=O)CCCC)C2NC(=O)NC21 (stereo unspecified) the results were 26S disassembly -1.3.

Structures from the list above that contain an aryl thioether with sulfur outside any ring (eleven):
Screening COc1ccc(NC(=O)CSc2nnc(Cn3c(=O)sc4ccccc43)n2C)cc1OC returned 26S disassembly -0.8.
For Cc1cc(NC(=O)CSc2nc3c(c(=O)n2Cc2ccccc2)SC(C)C3)no1 (stereo unspecified) the results were 26S disassembly 3.3 and VCAM-1 rise inactive.
For C=CCn1c(SCC(=O)c2cccs2)nnc1-c1cccc(OC)c1 the results were 26S disassembly 0.0.
Screening COC(=O)c1ccccc1NC(=O)CSc1nc(N)cc(N)n1 returned 26S disassembly 0.2.
For C=CCSc1nc2nc(C)cc(C)n2n1 the results were 26S disassembly 1.2.
Cn1c(SCC(=O)Nc2cccc(F)c2)nnc1-c1cccnc1 was read as 26S disassembly -2.2.
For Nn1c(SCC(=O)Nc2ccc3c(c2)OCO3)nnc1C1CC1 the results were 26S disassembly 1.0 and VCAM-1 rise inactive.
Cc1cc(NC(=O)CSc2nc3c(c(=O)n2-c2ccc(Cl)cc2)SCC3)no1 was read as 26S disassembly 0.3.
`O=C(CSc1nc2c(cnn2-c2ccccc2)c(=O)[nH]1)c1ccc(Cl)cc1` gave 26S disassembly 0.0.
COCCCNC(=O)CSc1ccc(Cl)cc1 was read as 26S disassembly 0.4 and VCAM-1 rise inactive.
For Cc1noc(C)c1CSc1nnc2scc(-c3ccc(Cl)cc3)n12 the results were 26S disassembly -0.4 and VCAM-1 rise inactive.

Not all compounds are listed; rates above refer to the full screens.
